Screening results as filed in PubChem.
FGF22 binding: binders of human FGF22 protein, primary screen, FGF22 synaptogenesis inhibitor project, biophysical, thermal shift, single point | Fibroblast growth factor 22 (Homo sapiens), Q9HCT0 | recombinant FGF22 thermal shift, SYPRO orange fluorescence; percent of sucrose octasulfate shift, DMSO zero | calls only at 9.99 µM | hit rate 1.5% among 340,000 | AID 651658, 2012;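 active = melting point raised past a set limit in the mean and every replicate; three in four hits are not shown here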
rRNA inh HTS: reduced GFP signal of wild-type E. coli, primary screen, bacterial rRNA inhibitor project, GFP/RFP fluorescence, OD600, single point. E. coli WT GFP vs humanized-ribosome RFP mutants, 24 h; active compounds read low; DMSO median 0, no signal -100. AID 720706, 2013. GFP signal change (wild-type ribosome), % (no concentration beside the values). hit rate 1.6% among 350,000;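 active = significant combined selectivity score with lowered wild-type GFP, culture density cut under 30%, mutant RFP and density less affected; inactive = any of these conditions unmet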; also: one replicate is shown; some compounds called inactive have numbers as strong as hits
ALR inh: inhibitors of human ALR sulfhydryl oxidase, primary screen, biochemical, H2O2 detection, HRP-luminol luminescence, single point; FAD-linked sulfhydryl oxidase ALR (Homo sapiens), P55789; purified ALR, DTT oxidation; inhibition, % (test concentration not listed); hit rate 3.8% among 290,000; AID 485317, 2010;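 active = mean and each replicate at 75% or more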;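 also: stock transfer was 7.5 nL into about 7.5 µL; 0% = neutral wells and 100% = wells with inactivated enzyme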
Target sequence (P55789 whole entry, looked up): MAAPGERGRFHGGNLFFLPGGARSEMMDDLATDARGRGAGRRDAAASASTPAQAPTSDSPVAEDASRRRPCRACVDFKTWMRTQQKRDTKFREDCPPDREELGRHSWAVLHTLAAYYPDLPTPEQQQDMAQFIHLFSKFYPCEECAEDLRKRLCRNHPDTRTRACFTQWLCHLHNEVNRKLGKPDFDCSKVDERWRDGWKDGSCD
HNF4A DNA FP: change in binding of human HNF4A to DNA, primary screen, biochemical, fluorescence polarization, FITC-DNA. activity change, % at 10 µM. 1 h. hit rate 0.3% among 360,000. AID 1224865, 2016; in the data active = activity change above about 30%, passing the limit was not always enough;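 also: controls were the assay level and a saturating level of protein; the project sought stronger binding though the title names inhibitors; some compounds called inactive have numbers as strong as hits; positive values seem to mean higher polarization but the record does not say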
Target sequence (P41235 whole entry, looked up): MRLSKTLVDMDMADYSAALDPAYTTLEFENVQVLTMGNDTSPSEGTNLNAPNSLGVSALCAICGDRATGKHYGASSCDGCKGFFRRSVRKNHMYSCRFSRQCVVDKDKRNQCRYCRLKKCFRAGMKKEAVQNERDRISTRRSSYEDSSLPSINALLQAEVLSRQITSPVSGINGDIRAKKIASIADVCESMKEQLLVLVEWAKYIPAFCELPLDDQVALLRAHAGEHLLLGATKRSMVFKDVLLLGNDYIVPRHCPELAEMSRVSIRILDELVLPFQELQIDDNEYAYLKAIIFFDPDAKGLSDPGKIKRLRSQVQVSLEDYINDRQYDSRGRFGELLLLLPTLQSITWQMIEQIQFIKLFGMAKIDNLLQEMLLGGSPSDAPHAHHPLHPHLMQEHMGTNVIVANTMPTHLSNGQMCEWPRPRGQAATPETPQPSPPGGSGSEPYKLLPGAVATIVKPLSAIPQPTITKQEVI
UCH37 DUB inh: inhibitors of human UCH37 deubiquitinase, primary screen, biochemical, Ub-AMC cleavage, fluorescence; purified proteasome/UCH37; hit rate 0.33% among 330,000; inhibition, % (concentration not given with the values); Ubiquitin carboxyl-terminal hydrolase isozyme L5 (Homo sapiens), Q9Y5K5;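 active = mean of two replicates above 20%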;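 also: 0% = compound-free wells with enzyme and 100% = wells lacking proteasome; stock transfer was 100 nL into about 20 µL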
Target sequence (Q9Y5K5 whole entry, looked up): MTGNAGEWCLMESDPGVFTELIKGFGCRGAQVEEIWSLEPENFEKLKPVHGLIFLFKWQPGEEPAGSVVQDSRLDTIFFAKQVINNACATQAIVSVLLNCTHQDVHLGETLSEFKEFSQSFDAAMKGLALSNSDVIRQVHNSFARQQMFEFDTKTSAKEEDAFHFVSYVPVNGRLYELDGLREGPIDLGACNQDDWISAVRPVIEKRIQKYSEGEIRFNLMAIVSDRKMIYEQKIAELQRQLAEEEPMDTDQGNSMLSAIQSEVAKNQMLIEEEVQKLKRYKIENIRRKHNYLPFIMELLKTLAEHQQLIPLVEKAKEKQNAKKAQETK
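Material: Human UCH37 enzyme supplied as purified proteasome complex | Schedule: 30 min preincubation with enzyme, 25 min cleavage at room temperature | Detection: AMC fluorescence 355/460 nm | Measure: % inhibition of Ub-AMC cleavage fluorescence | Controls: Wells without proteasome as full block, compound-free enzyme plus substrate as uninhibited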
Beta2AR agonist: beta2AR agonists driving receptor internalization, primary screen, cell-based, FAP fluorogen, flow cytometry | Beta-2 adrenergic receptor (Homo sapiens), P07550 | Am2.2-beta2AR cells; reference of the scale not given here | response, % (no concentration beside the values) | hit rate 0.43% among 340,000 | AID 504454, 2011;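 active = response above a set limit, near 3 SD of response in nonfluorescent compounds, cut at about 42% in these data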;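 also: stock transfer was 100 nL into about 11 µL; a reference agonist was the positive control; negative values mostly stem from fluorescent compounds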
E coli growth: E. coli growth inhibition, primary screen, OD600 | Escherichia coli growth, 23 h; active compounds read low | OD600 absorbance (no concentration beside the values) | hit rate 0.21% among 330,000 | AID 1053175, 2014;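 active = OD600 absorbance below the run mean of sample wells minus 3.6 SD, in any replicate, cut at about 0.56 in these data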;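 also: stock transfer was 300 nL into about 60 µL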
rRNA inh HTS OD600: further read-out of rRNA inh HTS, marked with its call; OD600 change, %; measured here: OD600 growth;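 optical density of the mix in the first replicate; 0 = DMSO median and -100 = no signal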
rRNA inh HTS RFP: further read-out of rRNA inh HTS, marked with its call; RFP signal change, %; measured here: RFP humanized mutant strains;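 first replicate; 0 = DMSO median and -100 = no signal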
The depositor's hits bear a star; i = inactive; · = not tested or not shown; + = active, no number.

Results follow in this order: FGF22 binding	rRNA inh HTS	rRNA inh HTS OD600	rRNA inh HTS RFP	ALR inh	HNF4A DNA FP	UCH37 DUB inh	Beta2AR agonist	E coli growth
> OC(c1nc2ccccc2[nH]1)C(O)C(O)C(O)c1nc2ccccc2[nH]1 (stereo not drawn)
    ·	·	·	·	0	·	1.9	·	0.68
> CC(Nc1nc(-c2ccc(Cl)cc2)cs1)c1nc2cc(Cl)c(N3CCCCC3)cc2n1CCOCCO (stereo not drawn)
    i	1	7	12	3	-3.1	4.5	-6	0.71
> O=C(NC(=S)NCC1CCCO1)C(c1ccccc1)c1ccccc1 (stereo not drawn)
    i	·	·	·	·	4.0	-0.6	13	0.67
> Cn1c(=O)cc(Nc2ccccc2)[nH]c1=O
    i	6	-7	-0.2	·	-1.7	1.4	-1	0.62
> Cc1cccc2c1N(C(=O)CN1C(=O)c3ccccc3C1=O)C(C)(C)c1ssc(=S)c1-2
    ·	·	·	·	-2	-1.5	4.6	0	0.75
> O=c1oc(-c2cccs2)nc2sc3c(c12)CCCCC3
    ·	·	·	·	-11	0.4	-9.6	-3	0.67
> O=C1CC(N2CCN(C/C=C/c3ccccc3)CC2)C(=O)N1CCc1ccccc1 (stereo not drawn)
    i	8	-1	-0.7	6	0.1	2.8	-17	0.63
> COc1ccc(C2CC(c3ccc(Br)cc3)=NN2C(=O)CSC2=NN3CCCC(=O)N=C3S2)cc1 (stereo not drawn)
    ·	·	·	·	5	-1.2	·	-4	·
> COc1cc(-n2c(=O)c3ccccc3n(CC(=O)c3ccccc3)c2=O)cc(OC)c1OC
    i	10	7	-1.2	-24	-1.1	5.1	4	0.72
> O=C(Nc1ccc(OC(F)(F)F)cc1)c1cnccn1
    i	-3	0	-3.0	-5	0.7	-0.3	2	0.66
> CCOc1ccc(OCC)c(NC(=O)C2COc3ccccc3O2)c1 (stereo not drawn)
    ·	·	·	·	-7	-2.0	0.2	1	0.7
> CS(=O)(=O)NNC(=O)c1csc(Cc2c(Cl)sc3ccc(Cl)cc23)n1
    i	9	17	1.5	-1	-0.3	5.1	5	0.7
> CCOC(=O)N1CCN(Cc2nc(N)nc(Nc3ccc(C)cc3)n2)CC1
    ·	·	·	·	·	-2.0	6.5	2	0.68
> Cc1nnc(NC(=O)c2ccc(S(=O)(=O)N3CCCCC3C)cc2)o1 (stereo not drawn)
    i	-33	-31	-9.4	-3	-0.5	3.2	2	0.69
> O=C(Oc1ccc(F)cc1)c1cccnc1
    i	12	12	-0.1	-8	-0.4	3.8	-1	0.65
> CCOC(=O)C1CCCN(C(=O)c2ccc(C)c(NC(=O)C3=C(C)OCCS3)c2)C1 (stereo not drawn)
    i	-4	5	-2.7	3	7.5	-3.6	13	0.67
> Cc1ccc(-n2nc(C)c3c(C)c(CCC(=O)NCc4ccco4)c(C)nc32)cc1
    i	-7	-11	-1.8	2	1.5	-21	0	0.79
> Cc1cc2nc3n(c2cc1C)CC1CC(C(=O)NCc2ccccc2)N(C)C31 (stereo not drawn)
    i	5	2	-0.1	-14	-2.3	0.8	-2	0.69
> Cc1cccc(C(=O)NNC(=O)c2cccc([N+](=O)[O-])c2)c1
    i	15	12	-1.6	3	4.3	0.9	-10	0.65
> CN(C)CCN(C(=O)c1ccc2ccccc2c1)c1nc2cc3c(cc2s1)OCO3
    i	-8	-9	2.8	·	3.0	·	·	·
> COCCN(CC(=O)Nc1cccc(C)c1)S(=O)(=O)c1ccc(S(=O)(=O)N2CCCC2)cc1
    ·	·	·	·	5	1.6	4.4	11	0.71
> CCCSc1cc(NCCOC(=O)CCC)c([N+](=O)[O-])c2nonc12
    ·	·	·	·	97*	-4.2	2.2	1	0.71
> Cn1c(=O)c2c(nc(SCC(=O)O)n2Cc2cccc(C(F)(F)F)c2)n(C)c1=O
    ·	·	·	·	-11	-2.5	4.2	-3	0.72
> C/C(CC(=O)Nc1ccc2c(c1)OCCO2)=N\NC(=O)c1ccc([N+](=O)[O-])cc1Cl
    i	6	6	2.0	·	-0.7	·	2	·
> CCOC(=O)c1[nH]cnc1C(=O)Nc1ccccc1OC
    i	0	0	1.7	35	-3.5	3.8	5	0.7
> O=C(NCCOc1ccccc1)c1ccccc1SCC(=O)N1CCCC1
    i	·	·	·	-2	3.8	1.1	-2	0.69
> N#Cc1ccc(C(=O)NCC2CCCCC2)cc1
    i	9	16	0.9	-15	0.3	1.8	-4	0.69
> COC(=O)C[C@@H]1C=C[C@@H](NC(=O)c2cccnc2)[C@@H](CO)O1
    i	15	10	1.2	·	3.8	·	·	·
> Cc1c(C(=O)N2CCN(c3ccccn3)CC2)sc2ncnc(N3CCN(c4ccccc4)CC3)c12
    ·	·	·	·	19	-0.7	-4.9	9	0.75
> Cc1ccc(CN2CCC(N3CCC(C(=O)NCC4CCCO4)CC3)CC2)o1 (stereo not drawn)
    ·	13	3	-0.5	0	-1.6	-0.4	7	0.66

Single values from the entries so far.
Cc1ccc(CN2CCC(N3CCC(C(=O)NCC4CCCO4)CC3)CC2)o1 (stereo not drawn) – Beta2AR agonist: 7
Cc1c(C(=O)N2CCN(c3ccccn3)CC2)sc2ncnc(N3CCN(c4ccccc4)CC3)c12 – Beta2AR agonist: 9

Next compounds:
Results follow in this order: FGF22 binding	rRNA inh HTS	rRNA inh HTS OD600	rRNA inh HTS RFP	ALR inh	HNF4A DNA FP	UCH37 DUB inh	Beta2AR agonist	E coli growth
> COC(=O)c1sc(NC(=S)NC(=O)c2ccccc2C)nc1C
    i	11	3	1.8	8	8.7	4.7	1	0.71
> CCCn1c(SCC(=O)Nc2cc(C)on2)nc2c1c(=O)n(C)c(=O)n2C
    ·	·	·	·	0	4.6	2.7	1	0.7
> COc1ccc2cc(-c3nc4ccccc4n3C)c(=O)oc2c1
    i	2	5	3.2	-3	-0.4	-97	-15	0.67
> O=C(N/N=C/c1cn(-c2ccccc2)nc1-c1cc2ccccc2o1)c1ccccc1Br
    i	15	2	2.9	-4	2.9	·	-12	·
> CCCCOC(=O)Nc1cc(Cl)ccc1C
    ·	·	·	·	5	3.5	-1.6	2	0.76
> CN(C)S(=O)(=O)N1CCC(Oc2cccc(C(=O)NCCCC3CCCC3)c2)CC1
    i	-10	-21	-4.3	-5	-1.8	6.3	12	0.74
> O=C(COC(=O)/C=C/c1cccs1)NC1CCCCC1
    i	9	8	-0.4	2	5.4	1.3	-3	0.7
> Cc1ccc(S(=O)(=O)N2[C@H](CC(=O)c3ccc(F)cc3)OC[C@@H]2C)cc1
    i	0	-9	-2.7	·	-0.3	·	·	·
> COc1cccc(NC(=O)CN(C)C(=O)c2ccc(N3CCCCC3)c([N+](=O)[O-])c2)c1
    +	-15	-33	-3.2	-10	-5.9	4.8	1	0.67
> CC(C)Cc1nnc(NC(=O)CN2C(=O)NC3(CC(C)CC(C)(C)C3)C2=O)s1 (stereo not drawn)
    i	-3	-1	1.3	-16	1.1	4.9	2	0.69
> Cc1ccc2c(CC(=O)OC(C)C(=O)NCc3ccc4c(c3)OCO4)coc2c1 (stereo not drawn)
    ·	·	·	·	-4	-1.5	0.4	-1	0.68
> Cc1cc(C(=O)Nc2cccnc2Cl)on1
    ·	·	·	·	-3	0.4	-1.5	-2	0.75
> CC1CCCC12NC(=O)NC2=O (stereo not drawn)
    i	7	4	-1.2	·	1.4	-3.5	-6	0.73
> CCCc1nc2ccccc2c(=O)n1NC(=O)c1c(O)c2ccccc2[nH]c1=O
    ·	·	·	·	-7	1.4	3.0	-4	0.7
> O=C(COc1cccc(NC(=O)c2ccco2)c1)c1ccccc1
    ·	·	·	·	·	6.5	1.1	-1	0.68
> CC1CCN(c2c(NCc3ccc(C(=O)NCc4cccnc4)cc3)c(=O)c2=O)CC1
    i	10	9	-2.2	-2	-1.7	5.4	-6	0.69
> COc1cc(C(=O)Nc2ccc3oc(-c4cccnc4)nc3c2)cc(OC)c1OC
    ·	2	9	1.2	-7	2.8	-27	9	0.7
> O=S(=O)(/N=C(\Sc1ccc(Cl)cc1)c1ccccc1)c1ccccc1
    ·	·	·	·	2	5.6	·	5	·
> COC(=O)c1c(NC(=O)c2c(OC)cccc2OC)sc2c1C(C(=O)OC)CC2 (stereo not drawn)
    i	-23	-27	-4.7	0	-2.4	-31	10	0.63
> O=C(NCCN1CCC(n2c(=O)[nH]c3ccccc32)CC1)c1cccc(F)c1
    i	-5	-3	-4.7	·	4.6	·	·	·
> Cc1cccc(NC(=O)CNC(=O)c2cccc(S(=O)(=O)NCc3cccs3)c2)c1C
    i	-8	-11	2.0	1	3.3	1.4	-7	0.67
> CC(C)CC1NC(=O)c2cccnc2-n2c1nc1cc(F)c(F)cc1c2=O (stereo not drawn)
    i	-1	7	-0.4	·	-4.1	·	·	·
> O=[N+]([O-])c1ccc(/C=N/Nc2cc(Cl)nc(-c3ccccc3)n2)cc1
    ·	·	·	·	0	2.3	·	3	·
> COCCNc1nnc(SCC(=O)c2c[nH]c3ccccc23)s1
    ·	·	·	·	·	-2.8	2.9	4	0.65
> CCC(C(=O)OCCN(CC)CC)c1ccccc1 (stereo not drawn)
    i	·	·	·	·	-0.8	5.0	-5	0.67
> CNc1ccc(-c2cccc(C#N)c2)cn1
    i	7	8	-0.5	·	1.9	·	·	·
> O=C(O)c1ccc(Nc2nc3ccccc3nc2NS(=O)(=O)c2cccs2)cc1
    i	-17	-10	-1.6	23	-6.5	11	3	0.67
> CCOC(=O)c1c(S(=O)(=O)Nc2ccc(C)c(F)c2)c(C)n(C)c1C
    i	19	14	2.6	1	-3.9	1.6	-1	0.71
> Cc1nc(C(=O)NCc2ccccc2)sc1C1(C)CC(c2cccc([N+](=O)[O-])c2)=NO1 (stereo not drawn)
    i	6	2	-6.0	·	-0.5	0.0	-10	0.71
> C=CCSc1nc(=O)n2ccc(C)cc2n1
    i	7	6	0.3	2	-0.8	2.5	6	0.65
> CCCCOC(=O)Nc1nnc(SCCOc2ccc(C)cc2)s1
    ·	·	·	·	-4	2.5	1.2	4	0.72
> CCN(CC)C(=O)CSc1nc2c(sc(=S)n2Cc2ccco2)c(=O)n1-c1ccccc1
    ·	·	·	·	-11	1.4	2.0	-22	0.74
> C=C(C)c1cccc(C(C)(C)NC(=O)NC2CC(C)(C)NC(C)(C)C2)c1
    ·	·	·	·	-3	3.0	7.5	6	0.67
> CCOC(=O)c1ccc(NC(=O)c2ccco2)cc1
    i	-3	-3	1.2	0	2.0	6.6	3	0.65
> CCOC(=O)c1c(NC(=O)CSc2nnc(C)c(=O)[nH]2)sc(C)c1C
    ·	·	·	·	-7	·	2.7	·	0.71
> O=C(Nc1ccc(C(=O)N2CCOCC2)cc1)c1cccc(Br)c1
    i	9	2	-1.6	-3	-1.8	3.2	8	0.71
> Cc1ccc(CNC(=O)C(=O)NCCC2CCCCN2S(=O)(=O)c2cccs2)cc1 (stereo not drawn)
    i	5	10	-1.0	-2	1.2	2.9	-4	0.69

A portion of the library. The share of hits here may be higher or lower than overall.
